YopH PTP inh: blocks Yersinia enterocolitica YopH tyrosine phosphatase; fluorescence Ex485/Em525; 140,000 tested, 0.16% active; inhibition, %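 (about 10 µM by stock and volumes)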;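 active = inhibition of 50% or more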;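 also: controls were vehicle for no effect and minimum signal wells for full effect; inactives centre near -20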
Mtb H37Rv: M. tuberculosis H37Rv growth inhibitors, H37Rv strain (AID 1626); M. tuberculosis H37Rv growth inhibition; higher % means a stronger effect; inhibition, % at 10 µM, or IC50 in µM where a hit was titrated; 220,000 tested, 0.95% active;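 active = confirmed in a dose series; inconclusive = inhibition above 80% but not taken into the dose series; inactive = below 80% or under 30% at every dose of the series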;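 also: bacteria incubated seven days before Alamar blue readout; 0% = bacteria only wells and 100% = bacteria with antibiotic wells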
RecA splice inh: Mtb RecA intein splicing inhibition; inhibition, %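 (about 9 µM by stock and volumes)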; 290,000 tested, 0.75% active; cell-free RecA intein splicing, fluorescence; in the data active = inhibition above about 30%; inconclusive = no clear call, values can overlap the other calls;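 also: 0% = vehicle wells and 100% = reference inhibitor control wells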
Target sequence (P9WHJ3 whole entry, looked up, canonical isoform): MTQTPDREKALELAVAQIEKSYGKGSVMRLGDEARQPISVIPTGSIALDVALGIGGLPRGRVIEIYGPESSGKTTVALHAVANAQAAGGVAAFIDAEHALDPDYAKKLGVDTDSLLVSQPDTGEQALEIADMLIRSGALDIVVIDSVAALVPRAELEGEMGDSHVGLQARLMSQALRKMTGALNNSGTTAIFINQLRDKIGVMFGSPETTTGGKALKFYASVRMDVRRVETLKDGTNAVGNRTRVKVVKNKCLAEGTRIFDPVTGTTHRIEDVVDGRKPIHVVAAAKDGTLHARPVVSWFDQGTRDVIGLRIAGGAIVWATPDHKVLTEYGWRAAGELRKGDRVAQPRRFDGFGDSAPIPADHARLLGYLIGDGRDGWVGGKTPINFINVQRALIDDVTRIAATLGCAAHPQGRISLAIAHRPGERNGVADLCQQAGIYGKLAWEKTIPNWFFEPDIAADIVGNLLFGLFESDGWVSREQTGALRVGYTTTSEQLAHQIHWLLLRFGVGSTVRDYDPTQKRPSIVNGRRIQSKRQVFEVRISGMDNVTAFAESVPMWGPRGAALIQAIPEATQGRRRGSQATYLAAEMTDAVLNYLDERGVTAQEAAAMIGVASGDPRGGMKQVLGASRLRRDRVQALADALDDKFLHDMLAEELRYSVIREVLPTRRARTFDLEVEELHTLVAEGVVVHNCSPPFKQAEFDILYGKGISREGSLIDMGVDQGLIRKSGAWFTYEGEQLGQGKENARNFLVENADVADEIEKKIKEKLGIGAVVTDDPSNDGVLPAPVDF
Arbovirus inh: blocks arbovirus infection | arbovirus infection cell-based antiviral screen | 200,000 tested, 0.37% active | inhibition, % at 10 µM;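 active = inhibition from about 30%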;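 also: bluetongue infection of BSR cells; cell survival read as ATP light after 72 h; 0% = infected wells without compound and 100% = uninfected wells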
Mtb bLac sens: beta-lactam sensitization of Mtb H37Rv; inhibition, % at 25 µM; 330,000 tested, 0.27% active; M. tuberculosis H37Rv growth with meropenem, percent inhibition; hits of this screen are not shown here;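 active = about 74% or more and at least 40 points above the plate without the antibiotic, then above 30% in a dose series; inconclusive = first-round hits that could not be retested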;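 also: growth measured after seven days incubation then overnight dye step; 0% = bacteria only wells and 100% = bacteria with antibiotic; twin plates without the antibiotic show which effects depend on it; some results filed as inactive read as strong as hits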
The depositor's hits bear a star; ? = inconclusive; · = no result given. An excerpt. The share of hits here may be higher or lower than overall.

structure	YopH PTP inh	Mtb H37Rv	RecA splice inh	Arbovirus inh	Mtb bLac sens
CN(C)C(=O)COc1ncnc2scc(-c3ccc(F)cc3)c12	·	4%	·	-5	-5
Cc1nc([N+](=O)[O-])cn1CC(=O)Nc1ccc(Cl)cc1	·	·	-0.3	·	-6
CC(C)c1nc(=S)n(-c2ccccc2)[nH]1	-50	-4%	-1.2	4	-10
O=C(NCC(c1ccco1)N1CCOCC1)c1ccc(C(F)(F)F)cc1 (stereo unspecified)	·	·	5.0	·	-11
COc1ccc(CN2C(=O)c3c(c(C)n(C)c3C)C2C(=O)NC2CCC(C)CC2)cc1 (stereo unspecified)	·	6%	24	2	-8
COc1ccc(CC(=O)Oc2ccc(F)cc2)cc1	·	·	-1.3	·	-1
Cc1cc(C)c(Cn2c(C(=O)O)c(C=O)c3ccccc32)c(C)c1	·	9%	0.5	8	-5
O=[N+]([O-])c1ccc(OCC(O)CN(C2CCCCC2)C2CCCCC2)cc1 (stereo unspecified)	-26	3%	3.3	8	1
Cc1cccc(Nc2nnc(SCC(=O)NC(=O)Nc3ccc4c(c3)OCCO4)s2)c1	-20	-1%	0.9	-23	73
Cc1cccc(C)c1NC(=O)NC1CCc2ccccc21 (stereo unspecified)	·	·	-1.6	·	?
Fc1cc(NC(=S)NCc2ccc(CNC(=S)Nc3ccc(Cl)c(F)c3)cc2)ccc1Cl	·	8%	0.0	·	-1
COc1ccccc1/C=N/NC(=O)CSc1cc(C)nc2ccccc12	·	0%	-1.1	-18	-6
O=C(NCc1ccc(-c2nc3ccccc3s2)cc1)c1cc2ccccc2o1	4	7%	-1.6	-4	7
Cc1ccc(CNC(=O)/C=C/C(=O)O)cc1	·	-9%	-2.4	10	1
COc1ccc(CNc2nc3ccccc3n2CCN2CCCCC2)c(OC)c1	-35	-4%	0.2	-1	-5
COc1ccccc1CN(C)C(=O)C1(c2ccc(Cl)cc2)CC1	-3	3%	8.2	2	0
O=C1C(=O)N(Cc2cccc([N+](=O)[O-])c2)c2ccccc21	-18	-6%	-1.9	-11	1
O=C(CSc1nc(-c2ccccc2Cl)ns1)NCc1ccc2c(c1)OCO2	-23	62%	-0.6	-8	65
CCOc1ccc(-n2c(C)cc(/C=N/Nc3nc(C)cc(=O)[nH]3)c2C)cc1	·	6%	-1.2	·	57
O=Cc1cnc2ccccc2c1-c1ccccc1	·	·	-0.2	·	-2
CCn1c(=NC(=O)CSC(C)=O)sc2ccccc21	-30	0%	6.2	7	-8
COC(=O)CSc1nccc(-c2ccc(F)cc2)c1C#N	·	?	-3.8	0	99
COc1ccc(NS(=O)(=O)c2ccc(Cl)c(C(=O)O)c2)cc1S(=O)(=O)N1CCCCC1	·	-7%	-2.8	9	-3
COc1ccc(S(=O)(=O)N2CCN(c3ccc(F)cc3)CC2)cc1C(=O)N1CCCC1	·	·	5.3	·	2
COc1ccccc1NS(=O)(=O)c1cccc(C(=O)N2CC(C)OC(C)C2)c1 (stereo unspecified)	·	·	0.8	·	1
COc1ccc(-n2nnnc2SCC(=O)NCc2cccs2)cc1	·	4%	0.1	-6	3
CCCc1cc(C(=O)NC2CCCN(Cc3ccccc3F)C2)no1 (stereo unspecified)	·	·	-4.0	·	5
CN(Cc1cccnc1)C(=O)CC1C(=O)NCCN1Cc1ccc(-c2ccccc2)cc1 (stereo unspecified)	·	1%	2.0	10	5
O=C(Nc1ccc2c(c1)oc1ccccc12)C1CC1	-2	72%	0.8	-3	58
CCCc1nc(SCC(=O)N2CCCC2)c2ccccc2n1	-46	-6%	4.7	-1	5
C=C1CSc2nc(=O)c3c(C)c(C)sc3n21	-28	3%	-0.5	-1	·
C/C(=N/Oc1nc(C)cc(C)n1)c1ccc(F)cc1	-37	3%	0.6	2	-3
Cc1ccc(N2C(=O)NC(=O)/C(=C/c3cnn(-c4ccc(C)cc4)c3)C2=O)cc1	-17	80%	-2.7	5	72
N#Cc1c(N2CCOCC2)nsc1-c1ccccc1	·	1%	·	·	1
Cc1ccc(-n2nc(C)c3c(C)c(CCC(=O)O)c(C)nc32)cc1	·	·	-3.8	·	3
Cc1cc(Nc2ccccc2C(=O)O)nc2nc3ccccc3c(=O)n12	-14	-12%	2.4	5	11

2 compounds from above with just Mtb bLac sens:
smiles	Mtb bLac sens
Fc1cc(NC(=S)NCc2ccc(CNC(=S)Nc3ccc(Cl)c(F)c3)cc2)ccc1Cl	-1
COc1ccccc1/C=N/NC(=O)CSc1cc(C)nc2ccccc12	-6

More records follow:
structure	YopH PTP inh	Mtb H37Rv	RecA splice inh	Arbovirus inh	Mtb bLac sens
CN(c1ccccc1C(N)=O)S(=O)(=O)c1ccccc1	12	-3%	-3.7	5	19
CCCCc1c(C)nc2cc(-c3ccco3)[nH]n2c1=O	·	-1%	9.5	·	-1
O=C(O)c1cc([N+](=O)[O-])ccc1N1CCC(Cc2ccccc2)CC1	-23	7%	4.6	15	1
CCCOc1ccc(CNC(=O)Cc2cccs2)cc1	·	·	-2.0	·	3
CCC(C)NC(=O)CCC(=O)NNc1nc2ccccc2c2nc(C)nn12 (stereo unspecified)	-17	10%	-4.5	5	2
O=C(O)CCCC(=O)Nc1ccc(-n2ccc(C(F)(F)F)n2)cc1	·	-2%	-1.4	·	-10
Clc1ccc(-c2nnc(C3CCCCC3)o2)cc1	-1	-1%	·	-3	4
CC(=O)N(CN1C(=O)c2ccccc2C1=O)c1cccc(C)c1	-30	9%	-2.0	4	-2
Cn1c(SCC(=O)NC2CCCCC2)nnc1-c1ccccn1	·	·	-1.0	·	-3
O=S(=O)(c1cccc(C(F)(F)F)c1)N1CCC(O)(c2cccnc2)CC1	-40	-6%	-0.6	-26	-17
Cc1cc(NC(=O)CN2CCCCC2C)no1 (stereo unspecified)	6	2%	·	2	-7
COc1cccc(N(C(=O)Cn2nnc(-c3cccs3)n2)C(C(=O)NC2CCCCC2)c2ccncc2)c1 (stereo unspecified)	-16	·	-0.9	-3	0
CCC(CC)Nc1ccc(C(CC(N)=O)NC(=O)Cc2ccc(Br)cc2)cc1[N+](=O)[O-] (stereo unspecified)	·	-4%	1.5	·	-6
O=C(Cn1ncn2nc(-c3ccccc3)cc2c1=O)NCc1ccccn1	·	·	-1.0	·	3
COc1ccccc1CCNC(=O)C(=O)NCC1OCCN1S(=O)(=O)c1cc(F)ccc1F (stereo unspecified)	·	·	-4.9	·	0
N#C/C(=C\c1cn(Cc2ccccc2F)c2ccccc12)C(=O)NCc1ccco1	-23	0%	-15	-11	3
CC(=O)c1cc(C#N)c(N(C)Cc2ccccc2)nc1C	·	3%	-1.1	6	-1
Cc1sc2ncnc(SCC(=O)NC3CCCC3)c2c1C	·	·	0.4	·	-6
Cc1ccc(C(c2nnnn2C2CCCC2)N2CCN(c3nc4ccccc4s3)CC2)cc1 (stereo unspecified)	-11	17%	0.3	·	0
COC(=O)c1cccc(-n2[nH]nnc2=S)c1	-23	-5%	0.3	1	17
Cc1ccccc1Cn1cc(NC(=O)COc2ccccc2)cn1	-9	2%	5.1	-23	-8
CC(=O)c1ccc(C(=O)N2CCCC(C(=O)c3ccc(Cl)cc3)C2)s1 (stereo unspecified)	·	·	2.5	·	0
CC(C)(C)N1C(=O)NC(=O)/C(=C\c2ccc3c(c2)CCN3CCCCl)C1=O	·	8%	1.9	·	20
Nc1cc(S(=O)(=O)N2CCCCC2)ccc1Oc1ccccc1	·	4%	3.5	3	2
Cc1ccc2c(c1)N(C(C)C(=O)NCc1ccc3c(c1)OCO3)C(=O)CO2 (stereo unspecified)	·	9%	-0.9	·	-6
CC[C@H]1OC(=O)[C@H](C)[C@@H](O[C@H]2C[C@@](C)(OC)[C@@H](O)[C@H](C)O2)[C@H](C)[C@@H](O[C@@H]2O[C@H](C)C[C@H](N(C)C)[C@H]2O)[C@](C)(O)C[C@@H](C)C(=O)[C@H](C)[C@@H](O)[C@]1(C)O	·	·	13	·	27
Cn1c(=O)cc(OCCCC(=O)NCc2cccnc2)c2ccccc21	·	-1%	0.9	-10	6
CC(=O)c1ccc(NC(=O)N2CCN(c3cccc(Cl)c3)CC2)cc1	-24	2%	3.7	-32	52
COC/C=C/C1=CC2=CC(=O)C(C)(OC(=O)c3cnc4ccccc4n3)C(=O)C2=CN1c1ccc(OC)cc1 (stereo unspecified)	·	-7%	-4.2	·	1
COc1ccc(C(=O)C2CCCN(C(=O)CCc3scnc3C)C2)c(C)c1 (stereo unspecified)	·	-19%	3.8	6	3
CC(=O)C1=C(O)C(=O)N(Cc2ccccc2)C1c1ccccc1F (stereo unspecified)	-16	-6%	-0.2	-2	-6
CN1CCN(C2=C(Cl)C(=O)N(c3ccc(Cl)c(Cl)c3)C2=O)CC1	-38	35%	68*	16	75
Cc1cc(C)n(CCCN2C(=O)c3cccc4cccc(c34)C2=O)n1	·	2%	0.2	-3	-2
CCCCSc1nc2sc3c(c2c(=O)n1-c1ccc(C)cc1)CCN(C)C3	·	·	6.7	·	72
CCOc1ccc2oc(C(=O)N(CC)CC(=O)Nc3c(F)cccc3F)c(C)c2c1	·	·	-4.7	·	4
O=[N+]([O-])c1cc(-c2ccc(/C=N/n3cnnc3)o2)ccc1Cl	·	·	9.8	·	35
CN1CCCN(C(=O)c2cc(=O)[nH]c3ccccc23)c2nc3ccccc3nc21	-34	-2%	-2.8	2	-4
O=C(CSc1nnc(CNC(=O)c2c(F)cccc2F)o1)Nc1ccc2c(c1)OCO2	·	·	2.3	·	-7

Reprinted from the results shown, six compounds:
structure	YopH PTP inh	Mtb H37Rv	RecA splice inh	Arbovirus inh	Mtb bLac sens
Cc1cc(C)n(CCCN2C(=O)c3cccc4cccc(c34)C2=O)n1	·	2%	0.2	-3	-2
CCCCSc1nc2sc3c(c2c(=O)n1-c1ccc(C)cc1)CCN(C)C3	·	·	6.7	·	72
CCOc1ccc2oc(C(=O)N(CC)CC(=O)Nc3c(F)cccc3F)c(C)c2c1	·	·	-4.7	·	4
O=[N+]([O-])c1cc(-c2ccc(/C=N/n3cnnc3)o2)ccc1Cl	·	·	9.8	·	35
CN1CCCN(C(=O)c2cc(=O)[nH]c3ccccc23)c2nc3ccccc3nc21	-34	-2%	-2.8	2	-4
O=C(CSc1nnc(CNC(=O)c2c(F)cccc2F)o1)Nc1ccc2c(c1)OCO2	·	·	2.3	·	-7

4 of the compounds above, as labelled records.
SMILES: CN1CCCN(C(=O)c2cc(=O)[nH]c3ccccc23)c2nc3ccccc3nc21
- YopH PTP inh = -34
- Mtb H37Rv = -2%
- RecA splice inh = -2.8
- Arbovirus inh = 2
- Mtb bLac sens = -4

SMILES: CC[C@H]1OC(=O)[C@H](C)[C@@H](O[C@H]2C[C@@](C)(OC)[C@@H](O)[C@H](C)O2)[C@H](C)[C@@H](O[C@@H]2O[C@H](C)C[C@H](N(C)C)[C@H]2O)[C@](C)(O)C[C@@H](C)C(=O)[C@H](C)[C@@H](O)[C@]1(C)O
- YopH PTP inh = ·
- Mtb H37Rv = ·
- RecA splice inh = 13
- Arbovirus inh = ·
- Mtb bLac sens = 27

SMILES: Cc1ccc2c(c1)N(C(C)C(=O)NCc1ccc3c(c1)OCO3)C(=O)CO2 (stereo unspecified)
- YopH PTP inh = ·
- Mtb H37Rv = 9%
- RecA splice inh = -0.9
- Arbovirus inh = ·
- Mtb bLac sens = -6

SMILES: O=C(CSc1nnc(CNC(=O)c2c(F)cccc2F)o1)Nc1ccc2c(c1)OCO2
- YopH PTP inh = ·
- Mtb H37Rv = ·
- RecA splice inh = 2.3
- Arbovirus inh = ·
- Mtb bLac sens = -7

Bioassay records: PubChem, several laboratories
